rRNA inh HTS: reduced GFP signal of wild-type E. coli, primary screen, bacterial rRNA inhibitor project, GFP/RFP fluorescence, OD600, single point. E. coli WT GFP vs humanized-ribosome RFP mutants, 24 h; active compounds read low; DMSO median 0, no signal -100. AID 720706, 2013. 350,000 tested, 1.6% active. GFP signal change (wild-type ribosome), % (no concentration beside the values);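 active means significant combined selectivity score with lowered wild-type GFP, culture density cut under 30%, mutant RFP and density less affected; inactive means any of these conditions unmet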; further: one replicate is shown; some compounds called inactive have numbers as strong as hits
rRNA inh HTS OD600: further read-out of rRNA inh HTS, marked with its call; OD600 change, %; measured here: OD600 growth;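 optical density of the mix in the first replicate; 0 = DMSO median and -100 = no signal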
rRNA inh HTS RFP: recorded beside rRNA inh HTS, whose call it bears; RFP signal change, %; measured here: RFP humanized mutant strains;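 first replicate; 0 = DMSO median and -100 = no signal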
Numbers without * were called inactive. The list is partial; rates above refer to the full screens.

The first 10 entries, to show the layout:
SMILES	rRNA inh HTS	rRNA inh HTS OD600	rRNA inh HTS RFP
Cc1ccc(S(=O)(=O)N[C@@H]2CC[C@H](CCn3cc(C4CC4)nn3)O[C@H]2CO)cc1	0	0	-0.6
COCCN1Cc2cc(C(=O)OC)c3c(c2C1=O)c1cc(F)ccc1n3S(=O)(=O)c1cccc(C)c1	6	3	4.4
COCC(=O)N1CC[C@@H]2[C@@H](CO)Nc3ccc(-c4cccc(C#N)c4)cc3[C@@H]21	0	4	-8.2
CC(C)NC(=O)N[C@@H]1CC[C@H](CC(=O)NCc2ccc(Oc3ccccc3)cc2)O[C@@H]1CO	-3	-4	1.0
CN(C)C(=O)c1cccc(-c2ccc3c(c2)[C@@H]2[C@@H](CCN2C(=O)Cc2ccccn2)[C@H](CO)N3C)c1	-3	2	-6.1
O=S(=O)(c1ccc(F)cc1)N1CCCc2nc(-c3ccc(F)cc3)ccc21	8	6	0.2
COCC#Cc1ccc([C@H]2[C@H](CO)N3C(=O)CN(C(=O)C4CCOCC4)C[C@@H]23)cc1	5	3	1.9
COc1ccc2c3c([nH]c2c1)[C@H](CO)N(S(C)(=O)=O)CC31CCN(CC2CCOCC2)CC1	3	9	-3.7
CC(C)(C)[S@@](=O)N1Cc2cc(C(=O)N3CCCCC3)nc(-c3cccc(Br)c3)c2[C@H]1CCO	2	7	-1.0
COc1ccc(S(=O)(=O)N(C)C[C@H]2Oc3ccc(NC(=O)c4ccncc4)cc3C(=O)N([C@@H](C)CO)C[C@H]2C)cc1	4	1	-1.2

The list itself, from the first entry:
SMILES	rRNA inh HTS	rRNA inh HTS OD600	rRNA inh HTS RFP
Cc1ccc(S(=O)(=O)N[C@@H]2CC[C@H](CCn3cc(C4CC4)nn3)O[C@H]2CO)cc1	0	0	-0.6
COCCN1Cc2cc(C(=O)OC)c3c(c2C1=O)c1cc(F)ccc1n3S(=O)(=O)c1cccc(C)c1	6	3	4.4
COCC(=O)N1CC[C@@H]2[C@@H](CO)Nc3ccc(-c4cccc(C#N)c4)cc3[C@@H]21	0	4	-8.2
CC(C)NC(=O)N[C@@H]1CC[C@H](CC(=O)NCc2ccc(Oc3ccccc3)cc2)O[C@@H]1CO	-3	-4	1.0
CN(C)C(=O)c1cccc(-c2ccc3c(c2)[C@@H]2[C@@H](CCN2C(=O)Cc2ccccn2)[C@H](CO)N3C)c1	-3	2	-6.1
O=S(=O)(c1ccc(F)cc1)N1CCCc2nc(-c3ccc(F)cc3)ccc21	8	6	0.2
COCC#Cc1ccc([C@H]2[C@H](CO)N3C(=O)CN(C(=O)C4CCOCC4)C[C@@H]23)cc1	5	3	1.9
COc1ccc2c3c([nH]c2c1)[C@H](CO)N(S(C)(=O)=O)CC31CCN(CC2CCOCC2)CC1	3	9	-3.7
CC(C)(C)[S@@](=O)N1Cc2cc(C(=O)N3CCCCC3)nc(-c3cccc(Br)c3)c2[C@H]1CCO	2	7	-1.0
COc1ccc(S(=O)(=O)N(C)C[C@H]2Oc3ccc(NC(=O)c4ccncc4)cc3C(=O)N([C@@H](C)CO)C[C@H]2C)cc1	4	1	-1.2
C[C@@H]1CCCCO[C@H](CN(C)C)[C@@H](C)CN([C@@H](C)CO)C(=O)c2cc(NC(=O)Nc3ccccc3)ccc2O1	-1	-3	-2.4
CCCNC(=O)N1[C@@H]2Cn3c(cccc3=O)[C@H]1[C@@H](C(=O)N1CCC(Cc3ccccc3)CC1)[C@@H]2CO	-3	-4	1.1
COc1ccc(S(=O)(=O)N(C)C[C@H]2OCCCC[C@H](C)Oc3ccc(NC(=O)Nc4ccccc4)cc3C(=O)N([C@@H](C)CO)C[C@H]2C)cc1	2	3	1.3
C[C@@H]1CCCCO[C@@H](CN(C)C(=O)Nc2ccc(C(F)(F)F)cc2)[C@@H](C)CN([C@H](C)CO)C(=O)c2cc(NC(=O)Nc3ccc(F)cc3)ccc2O1	4	8	-3.6
COc1ncnc2c1ncn2CCCN(C)CCc1ccccn1	4	7	-2.3
C[C@@H]1CCCCO[C@H](CN(C)Cc2ccccc2)[C@@H](C)CN([C@H](C)CO)C(=O)c2cc(NC(=O)Nc3ccc4c(c3)OCO4)ccc2O1	7	9	4.0
C/C=C/c1cnc2c(c1)C(=O)N([C@H](C)CO)C[C@@H](C)[C@H](CN(C)S(=O)(=O)c1ccc(C)cc1)O2	-1	-4	-0.3
COc1ccc(CN(C)C[C@@H]2Oc3ccc(NC(=O)Cc4ccccc4)cc3C(=O)N([C@@H](C)CO)C[C@H]2C)cc1	3	0	-2.7
COC(=O)c1cc2c(c3c4cc(F)ccc4n(S(=O)(=O)c4ccc(C)cc4)c13)C(=O)N(Cc1ccccc1)C2	6	11	-1.0
CNC[C@@H]1OCCCC[C@@H](C)Oc2ccc(NS(C)(=O)=O)cc2C(=O)N([C@@H](C)CO)C[C@H]1C	5	3	-2.6
C[C@H](CO)N1C[C@H](C)[C@@H](CN(C)Cc2ccccc2)OCCCC[C@H](C)Oc2ccc(NC(=O)NC3CCCCC3)cc2C1=O	-2	-23	7.2
C[C@H](CO)N1C[C@H](C)[C@@H](CN(C)Cc2ccncc2)Oc2ccc(NC(=O)Nc3ccc4c(c3)OCO4)cc2CC1=O	-1	-14	3.4
C[C@H](CO)N1C[C@H](C)[C@H](CN(C)S(=O)(=O)c2ccccc2)Oc2ccc(NC(=O)c3ccncc3)cc2CC1=O	1	-3	1.4
CC(C)C#Cc1ccc([C@H]2[C@H](CO)N3C(=O)CN(C(=O)Cc4ccccc4)C[C@@H]23)cc1	4	14	1.3
CNC[C@H]1OCc2cn(nn2)CCCC(=O)N([C@H](C)CO)C[C@@H]1C	-1	-3	-0.6
C[C@@H](NC(=O)C[C@@H]1CC[C@H](NC(=O)CN2CCOCC2)[C@@H](CO)O1)c1ccccc1	3	2	2.6
CCCNC(=O)N1C[C@@H](O)COC[C@H]2O[C@H](CC(=O)N3CCCCC3)CC[C@@H]21	1	-3	4.6
COc1ccc(NC(=O)N(C)C[C@H]2OCCCC[C@@H](C)Oc3ccc(NC(=O)c4ccccc4)cc3C(=O)N([C@@H](C)CO)C[C@H]2C)cc1	0	1	-0.3
COc1ccc(NC(=O)Nc2ccc3c(c2)C(=O)N([C@H](C)CO)C[C@H](C)[C@H](CN(C)S(=O)(=O)c2ccc(Cl)cc2)OCCCC[C@@H](C)O3)cc1	3	7	-1.3
O=C(Cc1cccnc1)N1[C@@H](CO)[C@@H]2c3ccccc3NC[C@@H]21	0	6	-4.3
COc1ccc(S(=O)(=O)N(C)C[C@H]2OCCCC[C@H](C)Oc3ccc(NC(=O)Nc4ccc(F)cc4)cc3C(=O)N([C@H](C)CO)C[C@@H]2C)cc1	-3	2	-1.3
Cc1c(C(=O)NCc2ccc(F)cc2)sc(=O)n1Cc1ccc(Cl)c(Cl)c1	-15	-36	3.2
Cc1ccc(S(=O)(=O)Nc2ccc3c(c2)C(=O)N([C@H](C)CO)C[C@H](C)[C@@H](CN(C)Cc2ccc(C(=O)O)cc2)O3)cc1	8	8	-1.9
COc1ccc2c3c([nH]c2c1)[C@H](CO)N(C(=O)C1CCOCC1)CC31CCN(Cc2nccs2)CC1	2	19	1.5
C[C@@H]1CN([C@H](C)CO)S(=O)(=O)c2ccc(-c3ccccc3)cc2O[C@H]1CN(C)Cc1ccccc1C(=O)O	-3	-5	2.0
O=C(C[C@@H]1CC[C@H]2[C@@H](COC[C@@H](O)CN2Cc2cccc(-c3ccncc3)c2)O1)N1CCOCC1	3	-13	1.4
CC(=O)N1C[C@@H]2[C@H](c3ccccc31)[C@@H](CO)N2S(=O)(=O)c1ccccc1	-1	0	-1.3
CCNC(=O)C[C@@H]1C=C[C@@H](NC(=O)C2CCC2)[C@@H](CO)O1	-1	7	-2.3
C[C@@H]1CN([C@H](C)CO)C(=O)c2cc(NC(=O)C3CCCCC3)ccc2O[C@@H](C)CCCCO[C@@H]1CN(C)C(=O)NC1CCCCC1	0	-5	2.2
C[C@H]1CCCCO[C@H](CN(C)Cc2ccc3c(c2)OCO3)[C@@H](C)CN([C@@H](C)CO)C(=O)c2cc(NS(C)(=O)=O)ccc2O1	1	2	-0.4
COCC(=O)Nc1ccc2c(c1)C(=O)N(C)C[C@H](OC)[C@H](C)CN(Cc1ccncc1)[C@@H](C)CO2	3	-4	-0.9
COc1ccc(S(=O)(=O)N(C)C[C@@H]2Oc3cc(C#CC4CCCCC4)ccc3S(=O)(=O)N([C@H](C)CO)C[C@@H]2C)cc1	-1	3	-6.4
COc1ccc(F)cc1-c1cc(C(=O)NCc2cc(C(F)(F)F)cc(C(F)(F)F)c2)[nH]n1	10	4	2.5
CC(C)NC(=O)Nc1ccc2c(c1)CC(=O)N([C@@H](C)CO)C[C@H](C)[C@H](CN(C)Cc1ccc(Oc3ccccc3)cc1)O2	-7	-46	13
CCC(=O)N1C[C@@H](C)[C@@H](OC)CN(C)C(=O)c2cc(NC(=O)c3ccc(F)cc3)ccc2OC[C@H]1C	-1	0	-1.1
CC(=O)N1[C@@H](CO)[C@@H](c2ccccc2)C12CN(C(=O)Nc1ccccc1F)C2	0	9	-0.2
Cc1noc(C)c1NC(=O)Nc1ccc2c(c1)C(=O)N([C@H](C)CO)C[C@H](C)[C@H](CN(C)C(=O)NC1CCCCC1)OCCCC[C@H](C)O2	-3	-7	-1.7
Cc1noc(C)c1S(=O)(=O)Nc1ccc2c(c1)CC(=O)N([C@H](C)CO)C[C@@H](C)[C@@H](CN(C)Cc1ccc(Cl)c(Cl)c1)O2	-6	-11	3.7
O=C(C[C@H]1CC[C@@H]2[C@H](COC[C@H](O)CN2S(=O)(=O)c2ccccc2)O1)Nc1ccccc1	-4	-2	-5.2
C[C@H](CO)N1C[C@H](C)[C@H](CN(C)Cc2ccccc2)OCCCC[C@H](C)Oc2ccc(NC(=O)Nc3cccc4ccccc34)cc2C1=O	-7	-16	5.0
CC1(C)Cc2c(sc(NC(=O)Cc3ccccc3)c2C#N)C(C)(C)N1	-10	3	6.8
COc1ccc(C#Cc2cnc3c(c2)C(=O)N([C@H](C)CO)C[C@H](C)[C@@H](CN(C)C)O3)cc1	2	-8	-1.4
C[C@H]1CN([C@@H](C)CO)S(=O)(=O)c2ccc(C#Cc3cccnc3)cc2O[C@H]1CN(C)C(=O)C1CC1	-2	4	0.0
CS(=O)(=O)N1[C@@H](C#N)[C@@H](c2ccc(-c3ccccc3F)cc2)[C@@H]1CO	0	-16	0.1
C[C@H]1COc2cc(NCCO)ccc2S(=O)(=O)N1	3	10	-0.9
C[C@@H]1CN([C@@H](C)CO)C(=O)c2cc(C#C[C@@H](C)O)cnc2O[C@H]1CN(C)Cc1ccccn1	7	14	-2.0
O=c1[nH][nH]c2c1[C@H](c1ccc(F)cc1)O[C@H](C1CCCCC1)C2	9	-4	4.5
O=C(Nc1ccc(F)cc1)N[C@@H]1CC[C@@H](CCn2cc(C3(O)CCCC3)nn2)O[C@@H]1CO	-1	-8	-0.5
C[C@H](CO)N1C[C@H](C)[C@@H](CN(C)S(C)(=O)=O)Oc2ccc(NC(=O)Cn3cnnn3)cc2CC1=O	0	12	-0.2
CNC[C@H]1Oc2ccc(NC(=O)CCN3CCOCC3)cc2CC(=O)N([C@@H](C)CO)C[C@H]1C	2	-1	-1.1
Additional records.
SMILES	rRNA inh HTS	rRNA inh HTS OD600	rRNA inh HTS RFP
CCc1nc2ccc(C(=O)Nc3cccc(OCC(=O)N(C)C)c3)cn2c1N(C)C(=O)c1ccncc1	8	5	-0.7
C[C@H]1CN([C@@H](C)CO)C(=O)c2c(c3ccccc3n2C)-c2ccccc2CO[C@H]1CN(C)C(=O)[C@H]1CCCN1C	-1	-3	0.1
CCCC(=O)Nc1ccc2c(c1)C(=O)N(C)C[C@@H](OC)[C@@H](C)CN(Cc1cncnc1)[C@H](C)CO2	1	0	-0.2
C[C@H](CO)N1C[C@H](C)[C@H](CN(C)C(=O)CN(C)C)Oc2cc(C#Cc3ccccc3)ccc2S1(=O)=O	0	-1	1.1
Cc1ccc(S(=O)(=O)NCC[C@@H]2CC[C@@H](NC(=O)CCN3CCCCC3)[C@H](CO)O2)cc1	2	4	1.8
COc1cc(CCN=Cc2cc(Cl)cc(Cl)c2O)c([N+](=O)[O-])cc1OC	2	0	-2.3
O=C(c1ccccc1F)N1CC2(C1)[C@@H](c1ccccc1)[C@@H](CO)N2CC1CC1	-4	-4	0.4
COc1cccc(CNC(=O)c2cc(S(=O)(=O)N3CCCCC3)ccc2C)c1	-8	1	-0.1
C[C@H]1CN([C@@H](C)CO)C(=O)c2cc(C#CC3CCCCC3)cnc2O[C@H]1CN(C)C(=O)Nc1ccccc1	1	-13	4.4
CO[C@H]1CN(C)C(=O)c2cc(NC(C)=O)ccc2OC[C@H](C)N(C(=O)c2ccccc2F)C[C@H]1C	0	-6	0.8
CCCCC(=O)N(C)c1c(CC)nc2c(OCC(=O)C(C)(C)C)cccn12	4	11	1.4
CCC(=O)N1[C@H](CO)[C@H](c2ccccc2)C12CN(C(=O)NC1CCCC1)C2	3	7	-1.5
CO[C@@H]1CN(C)C(=O)c2ccc(NC(=O)Cc3ccccc3)cc2OC[C@@H](C)N(CC2CC2)C[C@@H]1C	0	7	2.0
O=C(C[C@@H]1C[C@@H]2c3cc(NC(=O)Nc4ccccc4)ccc3O[C@@H]2[C@@H](CO)O1)NCCN1CCCCC1	4	4	2.1
COC(=O)Cc1nnn2c1[C@H](C)[C@H](c1ccccc1Br)OCC2	-4	-5	-3.6
C[C@@H]1CCCCO[C@H](CN(C)Cc2ccc(C(=O)O)cc2)[C@H](C)CN([C@H](C)CO)C(=O)c2cc(NC(=O)CCCN(C)C)ccc2O1	4	4	0.9
Cc1ccc(S(=O)(=O)Nc2cccc3c2O[C@@H](CN(C)C(=O)Nc2ccc(F)cc2)[C@H](C)CN([C@H](C)CO)C3=O)cc1	-1	-6	-1.6

Bioassay records (PubChem BioAssay)
